# SARS PLP yeast = qHTS of Yeast-based Assay for SARS-CoV PLP; S. cerevisiae expressing SARS-CoV PLpro, growth rescue; control for the full effect not named in the record; Potency, µM (series often up to 32.9 µM), for inactives: at the highest dose activity, positive = growth rescue; 330,000 tested, 0.19% active; AID 485353, 2010; active means well fitted rising curve with a large enough effect; inconclusive means small, poorly fitted or top-dose-only effect; inactive means no such curve, though single readings can be large or run the other way; also: 0% is about no effect; nearly all actives have a fitted effect of over 55% in size; growth read by luminescence after 48 h
# LASV entry inh = qHTS for Inhibitors of binding or entry into cells for Lassa Virus. Lassa virus pseudotype entry inhibition, cell reporter; control for the full effect not named in the record. Potency, µM (doses to about 37.9 µM), for inactives: at the top dose activity change, negative = inhibition, actives largely listed as inhibitors. 300,000 tested, 1.2% active; active means well fitted inhibition curve with a large enough effect; inconclusive means small, poorly fitted or top-dose-only effect, or effect the other way; inactive means flat fitted curve, though single readings scatter; tested in HEK293 cells; also: % is scaled to controls: 0 for no effect and ±100 for the full control effect; nearly all actives have a fitted effect of over 50% in size; luciferase read-out
# Cruzain Triton = qHTS Assay for Promiscuous and Specific Inhibitors of Cruzain (with detergent). Potency, µM, for inactives: max response, negative = inhibition, most hits filed as inhibitors. 200,000 tested, 0.43% active. Cruzipain (Trypanosoma cruzi), P25779. purified cruzain, Z-FR-AMC fluorescence, 0.01% Triton;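 also: plate controls were neutral wells for no effect and buffer without enzyme for full effect; nearly all actives have a fitted effect of over 40% in size; top concentration of the series not given in the record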
# Target sequence (P25779 123-467 limits assumed): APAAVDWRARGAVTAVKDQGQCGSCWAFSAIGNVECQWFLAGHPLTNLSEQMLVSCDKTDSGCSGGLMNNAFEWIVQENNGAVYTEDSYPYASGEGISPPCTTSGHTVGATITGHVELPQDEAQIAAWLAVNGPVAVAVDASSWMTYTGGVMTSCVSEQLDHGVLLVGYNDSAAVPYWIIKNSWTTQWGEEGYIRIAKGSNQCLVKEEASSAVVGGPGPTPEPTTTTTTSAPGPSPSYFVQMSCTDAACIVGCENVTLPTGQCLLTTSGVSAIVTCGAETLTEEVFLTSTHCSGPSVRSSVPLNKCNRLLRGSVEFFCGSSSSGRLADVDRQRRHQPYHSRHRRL
#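 Z-FR-AMC hydrolysis (2 uM substrate) by cruzain (1.5 nM) monitored kinetically at ex 360/em 450 nm after 15 min room-temperature compound exposure; 0.01% Triton X-100, pH 5.5, 5 mM DTT.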
# 2A StopGo = High Throughput Screening for Foot and Mouth Disease Virus Antivirals; human cells with a luciferase reporter of 2A StopGo recoding; control for the full effect not named in the record; Potency, µM (series often up to 57.9 µM), inactives show at the highest dose signal change, negative = less light; 410,000 tested, 1.2% active; AID 1159524, 2015; active = well fitted falling curve with a large enough effect; inconclusive = small, poorly fitted or top-dose-only effect; inactive = no such curve, though single readings can be large or run the other way; tested in HEK293T cells; also: % is scaled to controls: 0 for no effect and ±100 for the full control effect; nearly all actives have a fitted effect of over 45% in size; luciferase light after 4 h
# MARV entry inh = qHTS for inhibitors of binding or entry into cells for Marburg Virus. Marburg virus pseudotyped entry inhibition, cell reporter; control for the full effect not named in the record; about a third of the inactives were read at about 46 µM. Potency, µM (titrated, usually from 37.8 µM), for inactives: at the top dose activity change, negative = inhibition, most hits filed as inhibitors. 300,000 tested, 1.8% active; active = well fitted inhibition curve with a large enough effect; inconclusive = small, poorly fitted or top-dose-only effect, or effect the other way; inactive = flat fitted curve, though single readings scatter; tested in HEK293 cells; about a fifth of its hits are not listed in these tables; also: % is scaled to controls: 0 for no effect and ±100 for the full control effect; luciferase read-out
# RE007 growth inh = qHTS Assay for Inhibitors of the HIV-1 protein Vpr; S. pombe RE007 Vpr strain, BacTiter-Glo ATP luminescence, 24 h; control for the full effect not named in the record; Potency, µM (series often up to 92.2 µM), inactives show at the top dose activity change, negative = less growth; 360,000 tested, 0.21% active; AID 651644, 2012; active = well fitted falling curve with a large enough effect; inconclusive = small, poorly fitted or top-dose-only effect; inactive = no such curve, though single readings can be large or run the other way;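 also: % is scaled to controls: 0 for no effect and ±100 for the full control effect; nearly all actives have a fitted effect of over 50% in size; the assay follows cell death caused by Vpr and the record does not say whether a fall means rescue or toxicity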
#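 Fission yeast RE007 carrying one integrated HIV-1 vpr copy, seeded at OD 0.01 in PMG+AL medium with 23 nL pinned compound. Grown 24 h at 30 degrees; viability read by BacTiter-Glo luminescence after 5 min.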
# NS1 function inh = qHTS Assay for Inhibitors of Influenza NS1 Protein Function | AID 2326, 2010 | S. cerevisiae slowed by influenza A NS1, growth recovery by OD600 | Potency, µM (series often up to 46.1 µM), for the others: at the top dose activity, positive = more growth | 270,000 tested, 0.4% active; active means well fitted rising curve with a large enough effect; inconclusive means small, poorly fitted or top-dose-only effect; inactive means no such curve, though single readings can be large or run the other way; also: nearly all actives have a fitted effect of over 50% in size
#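 Growth recovery, yeast-based: influenza A NS1 expressed in S. cerevisiae causes slow growth, and suppressors are detected by OD600. The parent strain without NS1 is used as positive control.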
# Cruzain noTriton = qHTS Assay for Promiscuous and Specific Inhibitors of Cruzain (without detergent); Cruzipain (Trypanosoma cruzi), P25779; purified cruzain, Z-FR-AMC fluorescence, no detergent; Potency, µM, without a hit: max response, negative = inhibition, most hits filed as inhibitors; 200,000 tested, 2.3% active;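 also: plate controls were enzyme without inhibitor for no effect and buffer without enzyme for full effect; nearly all actives have a fitted effect of over 40% in size; top concentration of the series not given in the record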
#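 Purified cruzain at 1.5 nM, pre-incubated 15 min with compound at room temperature in 100 mM sodium acetate pH 5.5, 5 mM DTT, 0.00005% Triton X-100. Reaction started with 2 uM Z-FR-AMC; AMC fluorescence increase over 60 s gives rate.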
# Numbers without * were called inactive; ? = inconclusive; · = not tested or not shown; & = joins results of further samples; [ ] = another dose, or the depositor's remark. Unless noted, calls follow the shape of the dose curve; as a rule, active = well fitted curve in the direction sought with a large enough effect; inconclusive = small, poorly fitted or top-dose-only effect, or another doubt; inactive = no such curve, though single readings can be large; an effect the other way counts as inactive or inconclusive. Potency is read from the fitted curve at half-maximal effect.
nr	mol	SARS PLP yeast	LASV entry inh	Cruzain Triton	2A StopGo
1	O=C(NCCN1C(=O)S/C(=C\c2ccc(OC(F)F)cc2)C1=O)[C@@H]1CCCN1C(=O)c1cccs1	5%	-25%	-4.2%	?
2	Cc1c(O)c2ccccc2n(-c2ccccc2)c1=O	·	?	·	-11%
3	Cc1oc2c(C)c3oc(=O)c(CC(=O)N4CCCCC4)c(C)c3cc2c1C	·	13%[46.1 µM]	0.5%	11%
4	Cn1c(CCNC(=O)c2ccccc2Cl)n[nH]c1=S	4%	-2%	4.8%	-14%
5	COc1cccc(C(=O)Nc2nnc(-c3ccccc3)s2)c1	-1%	?	·	16%
6	Cc1cccc(C2c3[nH]c4ccccc4c3CCN2C(=O)c2ccc(=O)[nH]c2)n1 (stereo not given)	-1%	·	·	-2%
7	CC(=O)c1ccc2c(c1)C1C(Cl)C(Sc3ccccc3[N+](=O)[O-])CC1C(C(=O)O)N2 (stereo not given)	-5%	1%	-20%	-23%
8	CC(=O)Nc1nc2ccccc2n1CCN1CCOCC1	-6%	7%	-2.9%	7%
9	O=C(Cn1cc2c(n1)CCCC2)NCCCN1CCN(c2ccccc2F)CC1	2%	·	1.2%	-8%
10	COc1cccc(-c2cn(-c3cccc(C(F)(F)F)c3)c(=S)[nH]2)c1	1%	·	·	-21%
11	CC1C(=O)N(Cc2ccccc2)c2ccccc2N1C(=O)c1ccccc1 (stereo not given)	-2%	·	·	32µM*
12	O=C(CCCc1nc(-c2ccc(Cl)cc2)no1)Nc1cccnc1	-25%	?	2.6%	?
13	Cc1cc(OC(C)C(=O)N(Cc2cccs2)C2CCS(=O)(=O)C2)ccc1Cl (stereo not given)	2%	·	·	?
14	Cc1nn(CCCC(=O)NCc2ccc(F)cc2)c(=O)c2nccn12	?	·	·	-22%
15	O=c1[nH]c(C2CCCN(S(=O)(=O)c3ccccc3)C2)nc2c1nnn2Cc1cccc(Cl)c1 (stereo not given)	0%	?	·	-16%

nr	MARV entry inh	RE007 growth inh	NS1 function inh	Cruzain noTriton
1	-28%	-6%	-7%	?
2	0%	-8%	·	·
3	14%[46.1 µM]	·	·	6%
4	16%	-3%	6%	-1%
5	-18%[46.1 µM]	-9%	-5%	·
6	·	-15%	-10%	·
7	0%	-4%	15%	23%
8	-2%	1%	-6%	-3%
9	1%	-11%	-25%	1%
10	·	19%	?	·
11	·	19%	0%	·
12	-49%	6%	-134%	13%
13	·	17%	7%	·
14	·	9%	-1%	·
15	?	5%	?	·

# Next part.
nr	mol	SARS PLP yeast	LASV entry inh	Cruzain Triton	2A StopGo
16	CCS(=O)(=O)N1CCN(S(=O)(=O)c2ccccc2)CC1	3%	12%	5.1%	-3%
17	COc1cccc(CNC(=O)C2CCN(c3ncnc4c3nc3n4CCCCC3)CC2)c1	3%	?	·	-10%&9%
18	CN1C(=O)/C(=C/c2ccc(OCc3cccc(F)c3)cc2)NC1=S	-5%	-5%	·	-24%
19	CC(=O)C1C(c2ccc(F)c(F)c2)NC(=O)NC1(O)C(F)(F)F (stereo not given)	-4%	8%	1.2%	12%
20	CC(C)Sc1ncc(Cl)c(C(=O)Nc2ccc(S(=O)(=O)N3CCCCC3)cc2)n1	·	-10%[46.1 µM]	-1.4%	-26%
21	O=C(CCSc1ccccc1)NC1CCCC1	-4%	0%	3.4%	1%
22	CC(=O)c1csc(CS(=O)(=O)c2ccccn2)n1	-1%	·	·	-18%
23	Cc1ccc2c(c1)c(C)c(C)n2CC(O)CN1CCOCC1 (stereo not given)	-12%	-11%	-0.3%	0%
24	COc1ccc(N2CCSC2C(=O)NN)cc1 (stereo not given)	16%	6%	0.1%	1%
25	Cc1ccc(C(=O)N/C(=C/c2ccco2)C(=O)Nc2cccc(C)c2)cc1	-14%	16%	-7.1%	·
26	CN1CC(=O)N(CC(=O)NC2CCCCC2)C1=O	2%	8%	·	5%
27	CC(C)CN(C(=O)CCC(=O)OCC(=O)N(C)c1ccccc1)c1c(N)n(CC(C)C)c(=O)[nH]c1=O	0%	-15%	·	0%
28	COc1cccc(/C=C2\SC(=O)N(CC(=O)NC3CCS(=O)(=O)C3)C2=O)c1 (stereo not given)	1%	·	·	5%
29	CN(C)CCN(C(=O)CCS(=O)(=O)c1ccccc1)c1nc2cc3c(cc2s1)OCO3	37%	-11%	·	-4%
30	Cc1ccc(N2C(=O)CC(Sc3ncn[nH]3)C2=O)cc1 (stereo not given)	-13%	?	0.4%	-11%

nr	MARV entry inh	RE007 growth inh	NS1 function inh	Cruzain noTriton
16	3%	21%	-2%	0%
17	·	-13%	0%	·
18	?	-3%	8%	·
19	2%	15%	6%	8%
20	?	·	·	1%
21	-6%	7%	-8%	4%
22	·	4%	4%	·
23	-18%&-18%	-7%	5%	9%
24	8%	5%	9%	?
25	?	-9%	-5%	-12%
26	7%	-3%	·	·
27	?	2%	·	·
28	·	-9%	-5%	·
29	-3%	-4%	-12%	·
30	-20%	?	14%	-2%

# Further entries follow:
nr	mol	SARS PLP yeast	LASV entry inh	Cruzain Triton	2A StopGo
31	O=C(NCCCN1CCN(c2ccc(F)cc2)CC1)c1sc2ncccc2c1-n1cccc1	·	-2%[46.1 µM]	-3.1%	?
32	Cc1cc(SCC(=O)O)nc2ccccc12	1%&0%	17%&-19%	·	-16%&-18%
33	CCCc1ccc(OCc2ccc(C(=O)N3CCN(c4ccccn4)CC3)o2)c(OC)c1	-11%	33%[14.3 µM]	-8.2%	?
34	Cc1ccc2c(c1)[C@@H]1CN(C)CC[C@@H]1N2C(=O)Nc1cccc(C(F)(F)F)c1	4%	-7%	-0.7%	-13%
35	CSc1ccccc1-c1nnc(-c2ccccc2)o1	-10%	-29%	-4.4%	-12%
36	O=C(CC12CC3CC(CC(C3)C1)C2)NC(=S)NCc1ccccc1	-31%	?	-7.4%	-13%
37	Cc1ccc(NC(=O)CSc2n[nH]c(-c3ccncc3)n2)cc1C	-3%	23%	1.0%	-20%
38	CC(C)S(=O)(=O)c1csc(C(=O)Nc2ccc(F)cc2)c1N	-12%	·	·	?
39	O=C(Nc1cccc(C(=O)O)c1)/C(=C/c1cccc([N+](=O)[O-])c1)NC(=O)c1cccc(Br)c1	·	1%[46.1 µM]	·	31%[activator]
40	CCC(=O)N1CCCc2cc(S(=O)(=O)N3CCC(C(=O)Nc4ccccc4CC)CC3)ccc21	·	?	-0.9%	?
41	O=S(=O)(NC1CCCCC1)c1ccc(Cl)nc1	-10%	-3%	-0.7%	3%
42	O=C(c1ccc(-n2cncn2)c([N+](=O)[O-])c1)N1CCN(S(=O)(=O)c2ccccc2Br)CC1	0%	4%[46.1 µM]	·	?
43	O=C(Nc1ccc(N2CCOCC2)c(Cl)c1)c1ccc2c(c1)OCCO2	-1%	·	·	-17%
44	CCC1(c2ccc(F)cc2)NC(=O)N(CC(=O)N2c3ccccc3NC(=O)C2(C)C)C1=O (stereo not given)	-5%	?	·	-23%
45	CCC(COC(=O)Nc1ccccc1)NC(=O)OC(C)C (stereo not given)	0%	16%[46.1 µM]	·	7%

nr	MARV entry inh	RE007 growth inh	NS1 function inh	Cruzain noTriton
31	·	·	·	-2%
32	?	2%&0%	-2%&1%	·
33	23µM*	-3%	-144%	?
34	?	-20%	4%	-3%
35	-8%	?	-11%	3%
36	?	-4%	17%	-15%
37	-12%&0%	-2%	-4%&-8%	-4%
38	?	?	1%	·
39	?	4%	·	·
40	·	·	·	21%
41	?	4%	-4%	8%
42	23%	14%	·	·
43	·	6%	2%	·
44	?	12%	·	·
45	7%[46.1 µM]	-23%	-4%	·

# The listing continues.
nr	mol	SARS PLP yeast	LASV entry inh	Cruzain Triton	2A StopGo
46	CC1CCN(C(=O)CSc2nnc(CSc3ncccn3)n2C)CC1	-2%	-40%[14.3 µM]	2.0%	6%
47	CN1CC(=O)N(CC(=O)Nc2ccc(F)cc2)c2ccccc2C1=O	-5%	7%	1.2%	-11%
48	Cc1ccccc1C(=O)NC(=S)N(CCO)Cc1ccccc1	1%	3%	·	28%
49	CCCCn1c(=O)nc2n(-c3ccc(Br)cc3)c3ccccc3cc-2c1=O	·	-1%[46.1 µM]	0.6%	-8%
50	COc1ccc(CNC(=O)C2Cc3cc(S(=O)(=O)N4CCCC4)ccc3N2C(C)=O)c(OC)c1 (stereo not given)	4%	9%[46.1 µM]	·	-7%

nr	MARV entry inh	RE007 growth inh	NS1 function inh	Cruzain noTriton
46	-7%	6%	1%	-8%
47	2%	23%	0%	-6%
48	-4%	?	-6%	·
49	·	·	·	-3%
50	0%[46.1 µM]	8%	9%	·

# Two compounds from above, showing only LASV entry inh:
item	SMILES	LASV entry inh
40	CCC(=O)N1CCCc2cc(S(=O)(=O)N3CCC(C(=O)Nc4ccccc4CC)CC3)ccc21	?
29	CN(C)CCN(C(=O)CCS(=O)(=O)c1ccccc1)c1nc2cc3c(cc2s1)OCO3	-11%

# Filtered by structure: the compounds so far containing a CF3 group.
nr	mol	SARS PLP yeast	LASV entry inh	Cruzain Triton	2A StopGo
10	COc1cccc(-c2cn(-c3cccc(C(F)(F)F)c3)c(=S)[nH]2)c1	1%	·	·	-21%
19	CC(=O)C1C(c2ccc(F)c(F)c2)NC(=O)NC1(O)C(F)(F)F (stereo not given)	-4%	8%	1.2%	12%
34	Cc1ccc2c(c1)[C@@H]1CN(C)CC[C@@H]1N2C(=O)Nc1cccc(C(F)(F)F)c1	4%	-7%	-0.7%	-13%

nr	MARV entry inh	RE007 growth inh	NS1 function inh	Cruzain noTriton
10	·	19%	?	·
19	2%	15%	6%	8%
34	?	-20%	4%	-3%
